TRPV1 PAM: HTS Assay for Compounds that Act as Potentiators of the Vanilloid Receptor 1; potentiation, % at 8.33 µM; TRPV1-expressing cells, Fluo-8 calcium influx, capsaicin EC20 potentiation; host cell line not named in the record; control for the full effect not named in the record; AID 540277, 2011; Transient receptor potential cation channel subfamily V member 1 (Homo sapiens), Q8NER1; hit rate 0.02% among 320,000; active means potentiation above 80%; inconclusive means 30% to 80%; inactive means below 30%; note: 0% is about no effect
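Fluo-8 calcium influx in TRPV1-expressing cells, kinetic read (ex 480/em 520 nm). Compound added and read 3 min for agonist activity, followed by capsaicin at EC20 final and 2 min further read for enhancement.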
D2 ag: Beta-Arrestin HTS for Positive Allosteric Modulators of the Human D2 Dopamine Receptor: Agonists. D(2) dopamine receptor (Homo sapiens), P14416. DiscoveRx PathHunter D2 beta-arrestin, luminescence, 90 min; 100% = 57 uM dopamine signal. activation, % (test concentration not listed). hit rate 0.084% among 360,000. AID 624465, 2012; in the data active = activation above about 40%; inconclusive = about 15% to 40%; inactive = below about 15%; note: compound concentration not given in the record; the text of the record calls up to 30% inactive
Target sequence (P14416 whole entry, looked up): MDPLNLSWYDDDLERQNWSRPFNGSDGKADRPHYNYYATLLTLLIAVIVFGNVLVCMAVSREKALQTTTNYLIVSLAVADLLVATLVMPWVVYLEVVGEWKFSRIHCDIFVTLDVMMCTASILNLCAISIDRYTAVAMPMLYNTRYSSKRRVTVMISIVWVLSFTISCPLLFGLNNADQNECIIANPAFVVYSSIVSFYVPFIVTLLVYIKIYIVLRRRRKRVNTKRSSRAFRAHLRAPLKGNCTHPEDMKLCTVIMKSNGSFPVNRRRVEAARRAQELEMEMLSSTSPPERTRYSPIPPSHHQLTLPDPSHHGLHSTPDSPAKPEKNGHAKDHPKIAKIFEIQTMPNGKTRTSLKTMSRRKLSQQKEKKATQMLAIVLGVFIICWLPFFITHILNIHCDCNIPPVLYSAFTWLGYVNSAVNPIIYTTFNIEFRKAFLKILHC
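DiscoveRx PathHunter D2 beta-arrestin cells (2,100/well) attached overnight, then compound-stimulated 90 min at 37 C in HBSS/10 mM HEPES/0.1% Tween-20 buffer; beta-galactosidase complementation read by luminescence after 1 h at ambient temperature. Dopamine 57 uM final (EC100) as control.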
D2 PAM: Beta-Arrestin HTS for Positive Allosteric Modulators of the Human D2 Dopamine Receptor: Potentiators | potentiation, % (test concentration not listed) | hit rate 0.23% among 360,000 | AID 624464, 2012 | D(2) dopamine receptor (Homo sapiens), P14416 | DiscoveRx D2 beta-arrestin cells, luminescence, 90 min; 100% = 57 uM dopamine signal; active = potentiation of 50% or more; inconclusive = 30% to 50%; inactive = 30% or less;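 note: compound concentration not given in the record; tested on top of an EC20 dose of dopamine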
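PathHunter D2 cells, attached overnight at 37 deg C, received compound in DMSO plus dopamine at EC20 (50 nM final) for 90 min at 37 deg C. Beta-arrestin recruitment was read as luminescence after 1 h with detection reagent at ambient temperature.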
Sfp inh: qHTS Assay for Inhibitors of Bacillus subtilis Sfp phosphopantetheinyl transferase (PPTase) | 4'-phosphopantetheinyl transferase ffp (Bacillus subtilis), Q9F4F7 | Biochemical Sfp PPTase activity, qHTS | Potency, µM, for the others: max response, negative = inhibition, actives largely listed as inhibitors | hit rate 3.5% among 310,000 | AID 1490, 2009; active = well fitted inhibition curve with a large enough effect; inconclusive = small, poorly fitted or top-dose-only effect, or another doubt; inactive = no such curve, though single readings can be large or run the other way;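 note: the enzyme is Sfp with the accession as filed and its product quenches rhodamine fluorescence; potency is the fitted concentration of half-maximal effect; 0% = enzyme reaction without inhibitor and -100% = no enzyme wells; top concentration of the series not given in the record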
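Buffer: 50 mM Hepes-Na pH 7.6, 10 mM MgCl2, 0.01% Nonidet P-40, 0.01% BSA. Enzyme 15 nM, pre-exposed to compound 15 min; substrates then added and fluorescence change tracked over 30 min.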
PINK1 expr mod: A Quantitative High throughput Screen to Identify Chemical Modulators of PINK1 Expression; Potency, µM (top dose mostly 76.6 µM), inactives show at the highest dose activation (PINK1 increase), most hits filed as activators; PINK1 immunofluorescence, high-content cytometry, 24 h; AID 624263, 2012; hit rate 0.2% among 410,000; active = well fitted activation curve with a large enough effect; inconclusive = small, poorly fitted or top-dose-only effect; inactive = flat fitted curve, though single readings scatter; cell line not stated here;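 note: potency is the fitted concentration of half-maximal effect; % of control where 0% means no effect; nearly all actives have a fitted effect of over 65% in size; a mitochondrial uncoupler was the plate control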
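Stable cell line treated 24 h with compounds at 5 concentrations (CCCP controls), then fixed and immunostained for PINK1 plus nuclear and cell stains; PINK1 immunofluorescence quantified by laser-scanning microplate cytometry.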
CtBP-E1A inh: qHTS Assay for Inhibitors of the CtBP/E1A Interaction; activity change, % (concentration not given with the values); hit rate 0.49% among 340,000; AID 651724, 2012; CtBP / adenovirus E1A interaction (AlphaScreen); AlphaScreen GST-E1A/His-CtBP binding, 1536-well; stronger effect = lower value; control for the full effect not named in the record; in the data active means activity change below about -65%; inconclusive means about -30% to -65%; inactive means above about -30%; note: % is set by controls: 0 for no effect and ±100 for the full control effect
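AlphaScreen with 125 nM GST-E1A and 125 nM His-CtBP (5X stocks) in Tris pH 8.0, 300 mM NaCl, BSA, Tween 20, TCEP. Compounds preincubated 2 h at 37 deg C, then glutathione donor/nickel acceptor beads added for 1 h at 37 deg C in dark.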
Six1-Eya2 inh: qHTS Assay for Inhibitors of the Six1/Eya2 Interaction | hit rate 0.56% among 360,000 | AlphaScreen GST-Six1/His-Eya2 binding, biochemical; stronger effect = lower value; control for the full effect not named in the record | AID 651725, 2012 | Homeobox protein SIX1 (Homo sapiens) + Protein phosphatase EYA2 (Homo sapiens), … | activity change, % (test concentration not listed); in the data active = activity change below about -65%; inconclusive = about -30% to -65%; inactive = above about -30%; note: % is set by controls: 0 for no effect and ±100 for the full control effect; compound concentration not given in the record
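Compounds are tested against tagged Six1 and Eya2 proteins bridged by glutathione donor and nickel acceptor beads; after a one-hour incubation at 37 °C without light, AlphaScreen emission is recorded.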
The depositor's hits bear a star; ? = inconclusive; / = not tested or not shown; [ ] = another dose, or the depositor's remark.

smiles,TRPV1 PAM,D2 ag,D2 PAM,Sfp inh,PINK1 expr mod,CtBP-E1A inh,Six1-Eya2 inh
COc1ccc([C@H]2CC(=O)C=C(c3cccc(OC)c3)C2)cc1,-10,-2.2,-2,/,1.4%,/,-3
C(=N\n1cnc2ccccc21)/c1cccnc1,5,-2.1,0,19%,-3.3%,6,0
O=[N+]([O-])c1ccc(Cl)c(S(=O)(=O)N2CCCCCC2)c1,-9,0.1,70*,-2%,0.8%,-3,-11
O=C(Nc1ccc(NC(=O)C2CC2)nc1)c1cnccn1,-3,-4.5,-5,-7%,0.1%,/,2
Cc1cc2ncn(-c3ncnc4sc(C)c(C)c34)c2cc1C,-17,-3.6,7,19%,-0.6%,-4,-3
Cc1ccsc1C(=O)NCc1ccc(F)cc1,24,0.2,-4,4%,-2.0%,7,3
O=C(COC(=O)Cc1cccc(C(F)(F)F)c1)NCc1ccco1,-12,-3.1,-4,/,0.5%,0,-24
COc1ccc(OC)c(S(=O)(=O)N2CCC(C(=O)Nc3cc(C)ccc3C)CC2)c1,4,-0.6,-17,-8%,2.8%[38.3 µM],6,6
Cc1cccc(OCC(O)CN2CCOCC2)c1 (centres undefined),-2,-1.4,-1,17%,0.2%,/,1
C#CCN1C=CC(=O)[C@@H](OC(=O)Nc2ccc(Cl)cc2)[C@H]1c1ccccc1Br,/,1.4,/,/,-0.4%,-6,-6

smiles,TRPV1 PAM,D2 ag,D2 PAM,Sfp inh,PINK1 expr mod,CtBP-E1A inh,Six1-Eya2 inh
O=C(C1CC1)N1CCc2cc(S(=O)(=O)N3CCOCC3)ccc21,2,1.2,10,10%,-0.1%,-4,6
C=CCN1C(=O)c2ccc(C(=O)N(C)CC(=O)Nc3ccc(OCC)c(OCC)c3)cc2C1=O,1,3.4,-12,/,0.6%,8,-3
CCOC(=O)/C=C/COc1ccccc1[N+](=O)[O-],-4,3.9,4,9%,2.1%,0,-13
CCCc1cc(=O)oc2cc(C)cc(OCC(=O)Nc3cccnc3)c12,-17,5.6,6,12%,0.8%,9,19
O=C(NCC1CCCO1)c1onc(CSc2ccc(F)c(F)c2)c1C(=O)O (centres undefined),5,-1.5,-23,7%,0.4%,7,4
N#Cc1ccc(COC(=O)CC(NC(N)=O)c2ccc(Cl)cc2)cc1 (centres undefined),5,5.0,-4,3%,0.4%,6,15
COCCNC(=O)/C(C#N)=C/c1c(N2CCN(C)CC2)nc2c(C)cccn2c1=O,1,-3.5,-3,22%,-1.1%,-76*,-2
C#CCn1cc(CNC[C@H]2O[C@@H](n3cnc4c(=O)[nH]c(N)nc43)[C@H](O)[C@@H]2O)c2ccccc21,/,-7.0,-3,/,0.0%,2,1
O=S(=O)(/N=C(/Nc1cccc2ccccc12)c1ccc(F)cc1)c1ccccc1,-36,0.7,-14,0%,0.1%,-7,-9
COC(=O)c1ccc(OC)c(CSc2nnc(-c3ccc(C(C)(C)C)cc3)o2)c1,6,-1.0,-10,3%,2.6%,-2,0

smiles,TRPV1 PAM,D2 ag,D2 PAM,Sfp inh,PINK1 expr mod,CtBP-E1A inh,Six1-Eya2 inh
C=C(C)COc1ccc(-c2[nH]ncc2Oc2cccc(OC)c2)c(O)c1,4,4.1,7,9%,0.5%,-4,-1
CN(Cc1ccccc1)C(=O)COc1ccc(N(C)S(=O)(=O)c2ccc(F)cc2)cc1,3,-2.8,-15,-10%,1.2%,/,1
O=c1c2cc(C(F)(F)F)ccc2sn1-c1ccccc1,/,-1.9,/,/,?,2,-1
C/C(=N\NC(=S)NCC(C)(C)C)c1cc(F)cc(F)c1O,?,2.9,-15,23%,?,-22,-25
O=C(COC(=O)c1ccc(Cl)cc1[N+](=O)[O-])NNC(=O)c1cccs1,12,2.3,3,/,0.1%,1,2
CN(Cc1ccccc1)C(=O)c1cccc(NC(=O)Cc2ccc(NC(=O)C3CCCN(C(=O)c4ccccc4)C3)cc2)c1 (centres undefined),/,0.9,-1,/,0.6%,7,6
CC(C)(C)NC(=O)COC(=O)c1ccccc1Nc1ccc(SC(F)F)cc1,5,0.2,-20,12%,?,25,6
CC1=C(C(=O)OC(C)C)C(c2ccc(Br)s2)NC(=O)N1C (centres undefined),-16,1.2,-7,11%,0.1%,-6,6
CC(C)(C)n1nc2c(c1NC(=O)c1ccc(F)c(F)c1)CS(=O)(=O)C2,4,-1.0,6,2%,1.7%,8,2
CCN(CC(=O)Nc1ccccc1C(F)(F)F)C(=O)Cc1ccccc1,?,-4.4,-5,8%,0.0%,8,10

smiles,TRPV1 PAM,D2 ag,D2 PAM,Sfp inh,PINK1 expr mod,CtBP-E1A inh,Six1-Eya2 inh
COc1cc(/C=C2\SC(=O)N(CC(=O)Nc3ccccc3F)C2=O)cc(Cl)c1O,-18,5.1,3,5%,14%,8,-14
O=C(/C=C/c1ccccc1)NC(=S)Nc1ccccc1C(=O)NC1CCCCC1,/,-2.8,-13,-6%,/,7,1
CNC(=O)c1c(NC(=O)c2cccc(N3C(=O)CCC3=O)c2)sc2c1CCC2,4,-4.6,-6,-31%,5.7%,/,5
Clc1cccc(CNc2ccn3nc(-c4cccs4)cc3n2)c1,/,2.1,-9,/,3.9%,?,-28
Cc1ccc(CSc2nnc(-c3ccco3)n2N)cc1,-5,-2.2,-2,-5%,-3.5%,-17,-14
Cc1nnc(C)n1N1C(=O)c2cccc3cccc(c23)C1=O,-9,-4.5,-15,16%,0.1%,8,-2
C/C(CCC(C)C)=N\NC(=S)NCc1ccccc1,22,-4.7,-11,-13%,0.0%,-14,-23
Cc1cc([N+](=O)[O-])cc([N+](=O)[O-])c1NCC(C)C,9,-3.2,-3,-4%,0.9%,?,?
Cc1ccc(S(=O)(=O)Nc2cc3c(cc2C#N)OCO3)cc1C(N)=O,-4,-2.5,-3,-9%,-1.1%,0,-3
O=C1Nc2c(c(=O)[nH]c(=O)n2-c2ccc(F)cc2)C1(NS(=O)(=O)c1ccccc1)C(F)(F)F (centres undefined),11,-2.2,0,-13%,-2.4%,4,-1

4 records drawn at random from those above:
smiles,TRPV1 PAM,D2 ag,D2 PAM,Sfp inh,PINK1 expr mod,CtBP-E1A inh,Six1-Eya2 inh
O=C(/C=C/c1ccccc1)NC(=S)Nc1ccccc1C(=O)NC1CCCCC1,/,-2.8,-13,-6%,/,7,1
CNC(=O)c1c(NC(=O)c2cccc(N3C(=O)CCC3=O)c2)sc2c1CCC2,4,-4.6,-6,-31%,5.7%,/,5
C/C(CCC(C)C)=N\NC(=S)NCc1ccccc1,22,-4.7,-11,-13%,0.0%,-14,-23
Cc1nnc(C)n1N1C(=O)c2cccc3cccc(c23)C1=O,-9,-4.5,-15,16%,0.1%,8,-2

(continued)
smiles,TRPV1 PAM,D2 ag,D2 PAM,Sfp inh,PINK1 expr mod,CtBP-E1A inh,Six1-Eya2 inh
O=C(NCCCN1CCOCC1)c1ccc(CNS(=O)(=O)c2ccc(F)cc2)cc1,-1,-2.8,-6,11%,16%[38.3 µM],6,4
O=C(c1ccco1)N1CCCC(c2ccccc2)C1 (centres undefined),-2,-4.0,-9,-2%,-0.2%,-1,2
COc1ccccc1CNC(=O)C1CC(=O)N(c2ccc(C)c(C)c2)C1 (centres undefined),-7,2.2,-2,-5%,-6.0%[38.3 µM],4,2
Cn1ncc(C(=O)N=S(C)(=O)c2ccccc2)c1[N+](=O)[O-] (centres undefined),5,-3.4,6,5%,5.4%,4,13
c1ccc(Sc2ncnc3c2oc2ccccc23)cc1,-1,0.5,0,-25%,0.3%,17,22
O=C(NCc1ccc2[nH]c3c(c2c1)CCCC3)c1ccc(S(=O)(=O)N2CCOCC2)cc1,8,-3.8,0,2%,-0.8%,-25,-14
COc1ccccc1CNC(=S)Nc1ccc(F)cc1,-16,11,-2,15%,5.6%,-1,-3
CCO[C@@H]1OC(C(=O)O)=C[C@H](c2cn(C(C)=O)c3ccccc23)[C@H]1CCCO,/,-2.2,-33,/,0.5%,5,4
COc1ccc(CCNC(=O)c2cccc(NC(=O)CC3SC(N4CCCCC4)=NC3=O)c2)cc1OC (centres undefined),9,-1.0,8,0%,2.7%,5,-1
COc1ccc(OCCN2CCOCC2)cc1,-2,-1.4,1,-7%,-0.5%,5,3

smiles,TRPV1 PAM,D2 ag,D2 PAM,Sfp inh,PINK1 expr mod,CtBP-E1A inh,Six1-Eya2 inh
COc1ccccc1-n1c(CNC(=O)c2ccc(S(=O)(=O)N3CCCCC3)cc2)n[nH]c1=S,-13,-1.5,5,3%,0.9%,-6,10
CC(C)(C)OC(=O)N1CCC(c2c(C(=O)O)cnn2-c2ccccc2)CC1,1,-1.3,-9,16%,15%[38.3 µM],9,7
CS(=O)(=O)N(CC(=O)NCCSC1CCCCC1)c1ccccc1,-1,-3.5,-18,8%,-1.0%,2,31
Cc1ccc(CNC(=O)c2ccc(NS(=O)(=O)c3c(C)noc3C)cc2)cc1,2,-3.3,-4,11%,2.4%,4,6
CCCCC1CCC(c2ccc(C(N)=O)cc2)CC1 (centres undefined),10,-0.1,-2,-1%,-0.1%,/,-12

From PubChem
